RGS16-Gao HTS = modulates binding between human RGS16 and Galphao; bead-based flow cytometry RGS16-Galphao binding, fluorescence; actives lie on both sides; binding response (% of control), % at 10 µM; hit rate 0.38% among 220,000; AID 1441;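 active = below 25% or above 175%, edge rows of some plates excepted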;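 note: Galphao activated by GDP with aluminum fluoride before binding; 100% = wells without compound and 0% = beads without RGS; some results beyond the cut were filed as inactive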
Target sequence (O15492 whole entry, looked up): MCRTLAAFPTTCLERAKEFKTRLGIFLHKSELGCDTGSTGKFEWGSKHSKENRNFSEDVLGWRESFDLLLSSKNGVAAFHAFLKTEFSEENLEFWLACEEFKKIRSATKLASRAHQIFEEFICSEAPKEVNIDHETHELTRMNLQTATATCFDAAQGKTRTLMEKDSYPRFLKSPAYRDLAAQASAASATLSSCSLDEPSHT
Target sequence (P09471 whole entry, looked up): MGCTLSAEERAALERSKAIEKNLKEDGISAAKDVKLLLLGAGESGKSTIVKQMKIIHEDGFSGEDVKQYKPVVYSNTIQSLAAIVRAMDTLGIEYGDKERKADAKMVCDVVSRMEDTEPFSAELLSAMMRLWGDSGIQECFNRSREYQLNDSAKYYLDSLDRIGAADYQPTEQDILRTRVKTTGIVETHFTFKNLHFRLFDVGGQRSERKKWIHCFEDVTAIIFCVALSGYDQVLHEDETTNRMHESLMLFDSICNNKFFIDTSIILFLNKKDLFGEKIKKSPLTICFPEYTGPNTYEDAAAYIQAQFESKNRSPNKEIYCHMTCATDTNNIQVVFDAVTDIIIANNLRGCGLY
INS promoter inh = TRM-6 insulin promoter activity inhibition; TRM-6 cells (human fetal islet line), insulin promoter-eGFP reporter, imaging; reporter expression induced with tamoxifen; inhibition, % at 2 µM; hit rate 0.9% among 130,000;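 active = inhibition above the mean plus 3 SD, with well images judged a real hit on visual review, cut at about 60% in these data, passing the limit was not always enough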
PKD1 inh = inhibitors of human PKD1 kinase. Q15139. PKD1 kinase fluorescence polarization assay. inhibition, %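 (about 10 µM by stock and volumes)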. hit rate 0.056% among 200,000;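 active = inhibition of 50% or more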;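 note: controls were vehicle for no effect and a reference inhibitor for full effect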
HSV replic up = HSV replication enhancement; HSV replication augmentation in cells, fold increase; maximum fold increase; hit rate 0.005% among 220,000;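 active = peak rise of 1.5-fold or more in the series; tested in PC3 cells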;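 note: first round at 10 µM; read as green reporter fluorescence; hits show the peak of a series up to 25 µM; 1 = signal of infected wells without compound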
GALR2 agonist = activates the human galanin receptor 2 | activation, %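 (tested at 5 µM)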 | hit rate 0.48% among 140,000 | GALR2-expressing cells, agonist activation read-out;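 active = above mean plus 3 SD of all compounds, about 5% in these data, not always enough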;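 note: 0% = vehicle buffer wells and 100% = reference agonist at full effect; tested in CHO reporter cells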
Target sequence (O43603 whole entry, looked up): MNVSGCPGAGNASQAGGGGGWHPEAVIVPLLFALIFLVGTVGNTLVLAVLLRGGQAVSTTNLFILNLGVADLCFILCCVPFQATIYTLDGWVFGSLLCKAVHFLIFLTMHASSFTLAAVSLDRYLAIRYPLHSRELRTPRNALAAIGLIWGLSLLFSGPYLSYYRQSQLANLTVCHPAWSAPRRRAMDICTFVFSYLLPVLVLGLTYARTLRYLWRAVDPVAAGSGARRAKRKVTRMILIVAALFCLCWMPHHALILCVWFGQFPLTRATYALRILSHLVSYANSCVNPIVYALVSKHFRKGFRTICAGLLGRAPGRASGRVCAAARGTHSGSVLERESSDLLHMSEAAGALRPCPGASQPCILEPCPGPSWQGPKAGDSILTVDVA
INS promoter inh cell count = further read-out of INS promoter inh, marked with its call; normalized cell count, %; measured here: cell count, toxicity; reference of the scale not given here;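 cells exposed to compound for 48 h; stained nuclei by imaging scaled within each plate; lower means fewer cells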
HSV replic up primary fold = second read-out of HSV replic up, no call of its own (marks repeat the call); fold increase; compound at 10 µM; measured here: primary screen fold increase 10 uM; tested in PC3 cells;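 GFP signal in the first replicate; 1 = infected wells without compound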
Numbers without * were called inactive; i = inactive; nt = no result given.

Sample of the layout:
entry	structure	INS promoter inh	GALR2 agonist	INS promoter inh cell count	PKD1 inh	RGS16-Gao HTS	HSV replic up	HSV replic up primary fold
1	COc1cc(C(=O)Nc2cccc3cccnc23)cc(OC)c1OC	-14	-3.5	57	-11	97	i	1.1
2	COc1cc(C(C)=O)ccc1OC(=O)c1cc2cccc(OC)c2oc1=O	43	nt	75	7	101	i	0.97
3	CCOc1ccc(C(C)(C)C)cc1S(=O)(=O)N1CCOCC1	14	-2.4	102	2	77	i	1.1

This part in full, previewed entries included:
entry	structure	INS promoter inh	GALR2 agonist	INS promoter inh cell count	PKD1 inh	RGS16-Gao HTS	HSV replic up	HSV replic up primary fold
1	COc1cc(C(=O)Nc2cccc3cccnc23)cc(OC)c1OC	-14	-3.5	57	-11	97	i	1.1
2	COc1cc(C(C)=O)ccc1OC(=O)c1cc2cccc(OC)c2oc1=O	43	nt	75	7	101	i	0.97
3	CCOc1ccc(C(C)(C)C)cc1S(=O)(=O)N1CCOCC1	14	-2.4	102	2	77	i	1.1
4	COc1ccccc1NC1=C(Cl)C(=O)N(c2ccccc2)C1=O	-107	-1.8	127	-7	96	i	0.87
5	CCC(C)/C(C)=N/NC(=O)C1COc2ccccc2O1 (stereo unspecified)	nt	-0.6	nt	0	105	i	0.88
6	CCCC(=O)Nc1nn(C)c2nc3c(C)cccc3cc12	57	-0.6	114	-3	111	i	0.84
7	COc1cccc(-c2nc(=S)c3c(o2)CCCC3)c1	-38	nt	128	-9	95	i	1
8	FC(F)(F)c1cc(-c2ccccc2)nc(N2CCCCC2)n1	-79	-2.9	75	2	101	i	0.95
9	CC(=O)c1cccc(NC(=O)NC2CCCc3ccccc32)c1 (stereo unspecified)	nt	nt	nt	-2	101	i	1.2
10	O=C1COc2ccc(C(=O)COC(=O)CCc3ccc(S(=O)(=O)N4CCOCC4)cc3)cc2N1	-3	2.0	50	-6	100	i	1
11	CCCOc1ccc(-c2nc(OCC)c3ccccc3n2)cc1	60	-2.2	75	7	102	i	0.76
12	COCCn1c(-c2ccccc2)cnc1N	-9	5.3	84	-5	109	i	0.74
13	N#Cc1c(Nc2ccc(Cl)cc2)s[nH]c1=O	nt	nt	nt	nt	102	i	1.3
14	CCOn1c(=O)c(=O)n(O)c2ccccc21	nt	nt	nt	-3	100	i	0.93
15	CCOc1ccc(CNC(=O)c2ccc(Sc3ccc(C)cc3)c(NC(C)=O)c2)cc1	-48	-1.8	116	3	127	i	0.91
16	O=C(O)c1cc2nccc(-c3ccco3)n2n1	nt	nt	nt	nt	97	i	0.96
17	O=C(Nc1cccc(Cl)c1)C1C2CCC3C(CCC21)C3(Cl)Cl (stereo unspecified)	nt	-2.3	nt	5	101	i	1
18	Cc1ncn(C23CC4CC(CC(C4)C2)C3)n1	-6	-1.5	76	-3	42	i	1
19	CC1=[N+]([O-])C(C)(C)N(O)C1(C)C	nt	nt	nt	nt	102	i	1
20	O=C(CSc1nnnn1-c1ccccc1)Nc1ncc2c(n1)CC(c1ccco1)CC2=O (stereo unspecified)	33	-2.2	82	0	39	i	1.2
21	Cc1nc(NCc2ccc3c(c2)OCO3)c2nnn(Cc3ccccc3)c2n1	25	6.8*	108	-8	107	i	1.1
22	COc1ccc(-n2c(COc3cccc4ccccc34)nnc2SCC(=O)NCc2ccco2)cc1	-12	-3.2	99	-5	96	i	0.82
23	O=C(N/N=C/c1ccccc1OCc1ccccc1)c1cccnc1	-12	-1.6	72	-12	41	i	0.8
24	Cc1nn(-c2ccccc2)c(Cl)c1/C=C(\C#N)C(=O)NC(C)C	-5	-1.3	68	-15	84	i	0.8
25	CN1C(=O)C(O)(CC(=O)/C=C/c2ccco2)c2ccccc21 (stereo unspecified)	nt	nt	nt	-6	101	i	0.98
26	Cc1ccccc1S(=O)(=O)Cc1ccc(C(=O)O)o1	-35	-2.3	128	-1	103	i	0.88
27	CCOc1ccc2c(c1)C(N(CCN1CCOCC1)C(=O)Nc1ccccc1)CC(C)(C)O2 (stereo unspecified)	11	nt	110	-4	98	i	0.91
28	C=CCN1C(=O)C(Cc2ccc(OC)cc2)S/C1=N\N=C\c1cccs1 (stereo unspecified)	-22	0.5	105	7	110	i	1.1
29	c1ccc(Oc2nc(NCc3ccco3)nc(NCc3ccco3)n2)cc1	-80	-1.5	81	-16	165	i	0.93
30	CS(=O)(=O)n1nc(-c2ccc(Cl)cc2)nc1N	nt	nt	nt	-7	99	i	0.85
31	COc1ccc(N2C(=O)NC3CC2(C)Oc2ccc(Br)cc23)cc1OC (stereo unspecified)	-15	-1.6	96	1	98	i	0.78
32	CCn1c(CNC(=O)c2ccco2)nnc1SCC(=O)Nc1cc(C(F)(F)F)ccc1Cl	-16	-0.9	225	-7	89	i	0.87
33	CCC(C)N(CC(=O)Nc1cccc(C)c1C)C(=O)CCl (stereo unspecified)	100*	nt	0.7*	-2	101	i	0.89
34	C/C(=N\NC(=O)c1cccc(Cl)c1)C1C(=O)c2ccccc2C1=O	15	-2.1	141	2	113	i	1.1
35	O=C(Nc1ncccn1)C1CCCN1S(=O)(=O)c1ccc(Cl)c(Cl)c1 (stereo unspecified)	-20	-1.8	114	-1	108	i	0.91
36	CCOC(=O)c1cc(NC(=O)OC)c(C)nc1C	nt	-2.3	nt	-15	98	i	0.99
37	C/C(=N/NC(=O)c1ccccc1)C(=O)O	-7	nt	95	9	99	i	0.93
38	Cc1ccc(Oc2ccc(OCC(=O)OC3CCS(=O)(=O)C3)cc2)cc1 (stereo unspecified)	42	-2.8	99	-8	nt	i	0.83
39	O=C(Nc1ccc2nc(-c3ccco3)[nH]c2c1)c1cccs1	-12	-2.5	219	-5	103	i	0.64
40	CC(C)(C)OC(=O)N[C@@H](Cc1ccccc1)C(=O)N1CCC(C(=O)O)CC1	16	-1.1	213	-2	100	i	1
41	COc1cc2sc(C)nc2c2sccc12	27	-0.2	82	-6	87	i	0.73
42	Cc1c(Cl)cccc1NC(=O)CC1Sc2ccccc2NC1=O (stereo unspecified)	nt	nt	nt	nt	93	i	0.76
43	NC(=O)CSc1ccc(Br)cc1	21	-1.0	101	-5	105	i	0.85
44	Cn1c(=O)c2c(nc(NCCNC(=O)c3ccco3)n2Cc2ccccc2Cl)n(C)c1=O	-19	-1.1	80	-4	105	i	0.89
45	CCOc1cccc(/C=N/Nc2ccc(S(=O)(=O)N(CC)CC)cn2)c1O	7	-0.5	41	-5	94	i	0.61
46	CN(C)CCOCCP(=O)(c1ccccc1)c1ccccc1	nt	-2.6	nt	5	107	i	0.79
47	CC(=O)N1CCN=C1SCc1ccc(Cl)cc1	nt	-0.8	nt	-11	103	i	0.91
48	C/C(=N/OC(=O)c1ccc(C)cc1)c1cccs1	nt	-3.1	nt	-3	98	i	0.87
49	COc1ccc(OC)c(Nc2ccc(Nc3cc(OC)ccc3OC)nn2)c1	-3	-1.1	85	-2	94	i	0.83
50	Cc1nn(-c2cc(C)c3ccccc3n2)c2c1C1C(C2)C1(C)C (stereo unspecified)	-186	-0.8	125	-5	64	i	0.89

Other compounds.
entry	structure	INS promoter inh	GALR2 agonist	INS promoter inh cell count	PKD1 inh	RGS16-Gao HTS	HSV replic up	HSV replic up primary fold
51	CSc1nc(=O)n2cccc(C)c2n1	-48	-2.8	97	-12	99	i	1.1
52	Cc1nn(-c2ccccc2)c(-c2ccccc2[N+](=O)[O-])c1C(=O)O	nt	nt	nt	nt	98	i	0.94
53	Cc1cccc2cc(-c3nc4c(C)cccn4c3NCc3ccco3)c(=O)[nH]c12	0	-0.6	134	-3	115	i	1
54	CSc1ccccc1NC(=O)CN(c1cccc(C)c1)S(C)(=O)=O	-3	-0.7	75	-19	102	i	1
55	Cc1ccc(C(CC(=O)NCc2ccco2)c2ccccc2)c(O)c1 (stereo unspecified)	-19	-2.5	116	1	102	i	0.67
56	CCCn1c(-c2cccs2)nc2c1c(=O)[nH]c(=O)n2Cc1ccccc1	nt	nt	nt	1	98	i	1
57	Cc1cc2c(c(=O)n1Cc1ccco1)C(c1cccnc1)C(C#N)=C(N)O2 (stereo unspecified)	-21	-1.5	53	-8	100	i	0.91
58	CCC(OC(=O)c1ccco1)C(=O)NCc1ccco1 (stereo unspecified)	19	-1.1	81	-4	112	i	0.94
59	C=CCOc1cc(OC)c(OC)c(OC)c1	nt	nt	nt	-6	101	i	1.1
60	O=c1[nH]ncc(N/N=C/c2ccccc2)c1Cl	9	-3.1	91	5	86	i	1
61	COc1ccc(Cc2noc(CN3CCN(c4ccc(Cl)cn4)CC3)n2)cc1OC	nt	nt	nt	-3	106	i	0.93
62	Cc1nc2c(C#N)cnn2c2c1CCNN2C	nt	nt	nt	-1	102	i	1
63	Cn1c(SCC(=O)c2cccs2)nnc1-c1ccco1	31	1.2	71	6	84	i	0.84
64	COC(=O)c1cccc(NC(=O)c2onc3c2CCCC3)c1	10	0.7	100	-13	98	i	0.95
65	CN(C)S(=O)(=O)N(CC(=O)Nc1cccc(F)c1)c1ccccc1	-43	-2.8	108	-3	81	i	1
66	Cc1[nH]n(-c2ccc(C(=O)O)cc2)c(=O)c1CCO	-127	nt	197	-4	99	i	1
67	O=C(NCC(c1cccs1)N1CCOCC1)c1cc(-c2ccc(F)cc2)nc2ccccc12 (stereo unspecified)	-233	nt	30	-4	110	i	0.89
68	O=C(Nc1cc(S(=O)(=O)N2CCOCC2)ccc1N1CCOCC1)c1ccc(Cl)nc1	nt	nt	nt	nt	99	i	0.95
69	COC(=O)Nc1cc(C)nc2ccccc12	64	0.0	89	12	102	i	0.98
70	NC(=O)N/N=C/c1coc2ccc(O)cc2c1=O	nt	nt	nt	nt	102	i	1.1
71	N#Cc1cc(S(=O)(=O)c2ccc(Cl)cc2)c(N)[nH]c1=O	nt	nt	nt	5	102	i	1.1
72	C=CCSc1nnc(-c2ccc([N+](=O)[O-])cc2)o1	nt	nt	nt	-1	103	i	0.94
73	C/C(=N\NC(=O)c1ccc(CSc2nncn2C)cc1)c1cccs1	nt	nt	nt	2	103	i	0.81
74	COc1ccc2c(c1)c(=O)oc1c(C)c3occ(C)c3cc12	16	1.1	68	-2	nt	nt	nt
75	CC(C)(C)n1nnnc1C(c1cc2cc3c(cc2[nH]c1=O)OCCO3)N1CCSCC1 (stereo unspecified)	-25	-1.3	217	-10	105	i	1
76	COc1ccc(CCNC(=O)c2ccccc2SC)cc1	nt	nt	nt	-5	102	i	0.61
77	Clc1ccc(-c2nnc(-c3ccc(Br)cc3)c(N3CCSCC3)n2)cc1	nt	-1.3	nt	6	104	i	0.92
78	COC(=O)c1ccc(NC(C(=O)OC)C(C)C)c([N+](=O)[O-])c1 (stereo unspecified)	-32	-0.6	164	-9	105	i	0.85
79	O=c1/c(=C/c2ccc([N+](=O)[O-])cc2)sc2n1CCCN=2	2	0.7	115	-11	100	i	0.85
80	Cc1cccc2sc(NS(C)(=O)=O)nc12	11	nt	173	1	103	i	1
81	CCn1nc(C)c(Br)c1-c1nc(-c2cccc(C)c2)no1	nt	nt	nt	nt	96	i	0.99
82	CC(C)N1CCc2c(sc(NC(=O)c3nc4ccccc4s3)c2C(N)=O)C1	-95	nt	146	-4	108	i	1.1

Marked active in GALR2 agonist (from the list above):
nr	SMILES	GALR2 agonist	PKD1 inh	RGS16-Gao HTS	HSV replic up	HSV replic up primary fold
21	Cc1nc(NCc2ccc3c(c2)OCO3)c2nnn(Cc3ccccc3)c2n1	6.8*	-8	107	i	1.1

Bioassay records as filed in PubChem BioAssay.
